Polio RdRp inh: poliovirus RdRp elongation inhibitors, primary screen, biochemical, fluorescence polarization, total intensity | Genome polyprotein (Poliovirus type 1 (strain Mahoney)), P03300 | poliovirus polymerase elongation; stronger effect = lower value | % elongation, % (compound at 16.7 µg/mL) | 150,000 tested, 0.66% active | AID 588519, 2011; in the data active = % elongation below about 90%; also: some results filed as inactive read as strong as hits
Mtb MenB inh: M. tuberculosis MenB inhibitors, primary screen, biochemical, absorbance; 1,4-dihydroxy-2-naphthoyl-CoA synthase (Mycobacterium tuberculosis (strain ATCC 25618 / …; MenB enzyme assay, absorbance read-out; some hits fall short of the stated cut; inhibition, %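 (about 12 µg/mL by stock and volumes)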; 100,000 tested, 0.43% active; AID 540299, 2011;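 active = mean of two replicates above 30%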;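 also: 0% = no compound and 100% = wells with inactive enzyme; the first replicate is given; strong numbers were not always called active; inactives centre near -10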
MbtI inh: MbtI salicylate synthase inhibitors, primary screen, biochemical, fluorescence intensity; AID 493033, 2011; purified MbtI enzyme, fluorescence intensity read-out; 100,000 tested, 0.89% active; P9WFX0; inhibition, %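 (about 17 µg/mL by stock and volumes)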;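 active = above 50% in both replicates, above 80% if mildly self-fluorescent; inactive = the rest, strongly fluorescent compounds included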;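 also: 0% = mean of negative and 100% = mean of positive controls; one replicate is shown; some compounds called inactive have numbers as strong as hits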
Target sequence (P9WFX0 whole entry, looked up): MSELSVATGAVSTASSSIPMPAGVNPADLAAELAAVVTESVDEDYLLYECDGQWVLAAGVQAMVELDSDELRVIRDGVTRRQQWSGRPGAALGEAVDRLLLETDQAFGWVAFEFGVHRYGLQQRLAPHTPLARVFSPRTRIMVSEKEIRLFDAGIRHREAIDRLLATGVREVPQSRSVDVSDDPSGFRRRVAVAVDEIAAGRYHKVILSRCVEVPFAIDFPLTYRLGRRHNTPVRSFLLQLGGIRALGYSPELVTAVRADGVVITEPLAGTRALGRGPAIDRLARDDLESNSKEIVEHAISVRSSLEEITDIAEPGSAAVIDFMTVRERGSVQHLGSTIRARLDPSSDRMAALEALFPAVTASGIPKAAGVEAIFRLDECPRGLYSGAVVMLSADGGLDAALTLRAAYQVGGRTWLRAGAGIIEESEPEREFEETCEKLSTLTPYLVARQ
Polio RdRp inh intensity: second read-out of Polio RdRp inh, no call of its own (marks repeat the call); % elongation; measured here: total intensity read-out; formula for this scale not given here;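 total fluorescence in place of polarization; lower means less elongation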
* marks the source's active call; other numbers are inactive results; . = not tested or not shown; & = joins results of further samples.

#1 CCN1CCC(N(Cc2ccco2)C(=O)Nc2ccccc2C(F)(F)F)CC1
#2 Oc1[nH]c2ccccc2c1C1=NCCC1
#3 CCc1c(C)sc(NC(=O)C#Cc2ccccc2)c1C#N
#4 CNc1ccccc1C(=O)OCC(=O)c1ccc(F)cc1
#5 CC(C)Oc1ccc(C2CC(=O)N(C)C2=O)cc1 (stereo not drawn)

entry no.	1	2	3	4	5
Mtb MenB inh	-11	-37	-33	-36	1
Polio RdRp inh intensity	104	102	101	107	105
MbtI inh	-17	10	-17	-11	-5
Polio RdRp inh	103	103	102	102	98

Looked up above:
Mtb MenB inh, CC(C)Oc1ccc(C2CC(=O)N(C)C2=O)cc1 (stereo not drawn) is entered as 1
Polio RdRp inh intensity, CCc1c(C)sc(NC(=O)C#Cc2ccccc2)c1C#N is entered as 101

Additional results follow.
#6 CCCCN=C1NN=C(c2ccc(Cl)cc2)C(C)S1 (stereo not drawn)
#7 Cn1c(SCCN2CCCC2)nnc1-c1ccncc1
#8 CCOC(=O)c1cn(C)c(C(=O)OCC)c1O
#9 CC(C)n1nc(C(=O)N2CCC(=O)CC2)c2ccccc2c1=O
#10 O=C(Oc1ccc(Cl)cc1Cl)c1ccc(Br)cc1

entry no.	6	7	8	9	10
Mtb MenB inh	-29	-10	-13	-10	13
Polio RdRp inh intensity	104	102	102	102	106
MbtI inh	40	-7	2	20	4
Polio RdRp inh	101	104	105	104	102

#11 Cc1ccc2nc(C(F)(F)F)cc(N3CCN(CCS(=O)(=O)c4ccccc4)CC3)c2c1
#12 Brc1ccc(OCCSc2ncccn2)cc1
#13 CNC(=O)CSc1nc2ccccc2s1
#14 COc1ccc2c(c1)C(=O)C(C1(O)C(=O)Nc3ccccc31)CC2 (stereo not drawn)
#15 CC1C(=O)N2CCCc3cc(NC(=O)c4ccccc4)cc1c32 (stereo not drawn)

entry no.	11	12	13	14	15
Mtb MenB inh	8	.	-50	-22	-4
Polio RdRp inh intensity	102	107	97	108	104
MbtI inh	-4	-5	-8	.	7
Polio RdRp inh	101	104	102	103	103

#16 Cc1ccc(C(C)N2CCN(S(=O)(=O)c3ccc4c(c3)OCCO4)CC2)cc1C (stereo not drawn)
#17 CN(C)Cc1c[nH]c2ccccc12
#18 O=C1CCC2(C(=O)OCCCn3c(=O)[nH]c4ccccc43)Sc3ccccc3N12 (stereo not drawn)
#19 CCOC(=O)c1cnc2nc[nH]n2c1=O
#20 CCCNC(=O)c1c(O)c2c([nH]c1=O)CCCC2

entry no.	16	17	18	19	20
Mtb MenB inh	5	4	-5	1	-18
Polio RdRp inh intensity	103	103&98	102	104	104
MbtI inh	7	-8&-4	3	16	.
Polio RdRp inh	101	100&102	100	103	102

#21 CC(OC(=O)c1c(F)cccc1F)C(=O)Nc1cc(Cl)cc(Cl)c1 (stereo not drawn)
#22 CN(C)/C=C1/C(=O)N(c2ccc(Cl)cc2)C(=O)c2ccccc21
#23 CSc1nc(N)nc2sc(C(=O)C34CC5CC(CC(C5)C3)C4)c(N)c12
#24 COc1ccc(C(OC(=O)c2ccccc2)c2nccc3ccccc23)cc1 (stereo not drawn)
#25 C1CN=C(Nc2nn[nH]n2)C1

entry no.	21	22	23	24	25
Mtb MenB inh	.	-33	-30	-42	-2
Polio RdRp inh intensity	108	100	106	104	116
MbtI inh	-1	100	2	19	-8
Polio RdRp inh	102	99	105	104	109

#26 O=C(CSc1ccc(S(=O)(=O)N2CCOCC2)cc1)NC1CCCCC1
#27 Cc1ccc(NC(=O)CCCn2nnc3ccccc3c2=O)nc1
#28 COc1ccc(Br)cc1S(=O)(=O)NCCCN1CCOCC1
#29 N#CCCn1cc(/C=C2\NC(=S)N(c3ccccc3)C2=O)c(-c2ccccc2)n1
#30 Cc1ccc(N(Cc2ccccc2)C(=O)c2cccnc2)cc1

entry no.	26	27	28	29	30
Mtb MenB inh	-3	-5	6	-190	4
Polio RdRp inh intensity	103	103	111	108	110
MbtI inh	13	-11	.	9	8
Polio RdRp inh	102	106	102	107	111

#31 CC1CN(C(=O)C(C)Oc2ccccc2)CC(C)O1 (stereo not drawn)
#32 CCCCCCn1nc(C(=O)OCC(=O)c2ccc[nH]2)c2ccccc2c1=O
#33 COc1ccc(N(C(N)=S)C2=NCCCCC2)cc1
#34 O=S(=O)(Nc1ccccc1)C(F)(F)F
#35 CCCCCCCCCCOCCC(=O)O

entry no.	31	32	33	34	35
Mtb MenB inh	-9	-19	0	-11	-2
Polio RdRp inh intensity	103	.	103	104	100&99
MbtI inh	-19	0	-6	-31	-15
Polio RdRp inh	101	.	100	101	101&98

#36 Cc1cc(C)nc(N2CCCC(C(N)=O)C2)n1 (stereo not drawn)
#37 Cc1nc2c(=O)oc3ccccc3c2n1-c1ccccc1
#38 CCS(=O)(=O)Nc1ccc(C(=O)NC(C)C)cc1
#39 CCCN1CCN(CCNC(=O)Nc2ccccc2OC)CC1
#40 CCS(=O)(=O)N1CCC2(CC1)N=C(c1ccc(C(C)(C)C)cc1)C(=O)N2

entry no.	36	37	38	39	40
Mtb MenB inh	-41	-3	-18	4	1
Polio RdRp inh intensity	101	104	103	105	100
MbtI inh	53	-1	-47	-8	5
Polio RdRp inh	102	103	104	103	101

#41 CC1CCCCN1C(=O)N1CCOCC1 (stereo not drawn)
#42 N#Cc1cccc(NC(=O)CSc2ccccc2Cl)c1
#43 Nc1nc(CNS(=O)(=O)c2cccc3nsnc23)nn1S(=O)(=O)c1cccc2nsnc12
#44 O=C(O)c1nn(-c2ccccc2)c2c1CCc1occc1-2
#45 O=C(CNc1cc(C(F)(F)F)ccc1N1CCOCC1)N1CCc2ccccc2C1
#46 COc1ccc(C2CC(c3cccs3)=NN2C(=O)CSc2nc3ccccc3s2)cc1 (stereo not drawn)
#47 CC(C)c1ccc(C(=O)C2CN3CCC2CC3)cc1 (stereo not drawn)
#48 CC(O)CP(c1ccccc1)c1ccccc1 (stereo not drawn)

entry no.	41	42	43	44	45	46	47	48
Mtb MenB inh	-15	.	-8	-15	.	-6	-14	36
Polio RdRp inh intensity	108	96	104	107	99	108	103	103
MbtI inh	-6	32	-1	-22	5	121	-4	-20
Polio RdRp inh	104	104	103	103	103	104	104	99

In the list so far, twelve contain a halogen:
#1 CCN1CCC(N(Cc2ccco2)C(=O)Nc2ccccc2C(F)(F)F)CC1
#4 CNc1ccccc1C(=O)OCC(=O)c1ccc(F)cc1
#6 CCCCN=C1NN=C(c2ccc(Cl)cc2)C(C)S1 (stereo not drawn)
#10 O=C(Oc1ccc(Cl)cc1Cl)c1ccc(Br)cc1
#11 Cc1ccc2nc(C(F)(F)F)cc(N3CCN(CCS(=O)(=O)c4ccccc4)CC3)c2c1
#12 Brc1ccc(OCCSc2ncccn2)cc1
#21 CC(OC(=O)c1c(F)cccc1F)C(=O)Nc1cc(Cl)cc(Cl)c1 (stereo not drawn)

entry no.	1	4	6	10	11	12	21
Mtb MenB inh	-11	-36	-29	13	8	.	.
Polio RdRp inh intensity	104	107	104	106	102	107	108
MbtI inh	-17	-11	40	4	-4	-5	-1
Polio RdRp inh	103	102	101	102	101	104	102

#22 CN(C)/C=C1/C(=O)N(c2ccc(Cl)cc2)C(=O)c2ccccc21
#28 COc1ccc(Br)cc1S(=O)(=O)NCCCN1CCOCC1
#34 O=S(=O)(Nc1ccccc1)C(F)(F)F
#42 N#Cc1cccc(NC(=O)CSc2ccccc2Cl)c1
#45 O=C(CNc1cc(C(F)(F)F)ccc1N1CCOCC1)N1CCc2ccccc2C1

entry no.	22	28	34	42	45
Mtb MenB inh	-33	6	-11	.	.
Polio RdRp inh intensity	100	111	104	96	99
MbtI inh	100	.	-31	32	5
Polio RdRp inh	99	102	101	104	103
